Screening results from PubChem BioAssay.
RN4220 kill – growth inhibition of S. aureus RN4220, primary screen, OD600; 16 h; inhibition, % (no concentration beside the values); hit rate 0.33% among 330,000; AID 1259311, 2017;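 active = z-score of -3 or lower and OD600 up to 0.18 on both plates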;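 note: plate controls were untreated cells for no effect and reference antibiotic for full effect; stock transfer was 100 nL into about 80 µL; one replicate is shown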
Bead autofluor – counter-screen for toxin protease inhibitors: compound fluorescence; fluorescence intensity (no concentration beside the values); compound autofluorescence counterscreen, microsphere flow cytometry; stronger effect = higher value; hit rate 3.1% among 360,000; AID 624483;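 active = at least 3 SD above the mean of all compounds, about 16000 in these data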;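 note: 100 nL of 1 mM stock went into each well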
BJeLR viability – MLPCN primary cell-based screen for lethality selective to Ras in HRASV12 cells; hit rate 0.17% among 300,000; AID 1554, 2009; inhibition, % (no concentration beside the values); BJeLR (HRASV12) viability, CellTiter-Glo ATP luminescence, 48 h; reference of the scale not given here;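 active = replicate mean above 50%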;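 note: 50 nL library stock added to about 25 µL; numbers are from one replicate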
ugtP null kill – growth inhibition of ugtP-null S. aureus, primary screen, RN4220 ugtP deletion, OD600; 16 h; some inactives read as strong as hits; growth inhibition, % (no concentration beside the values); hit rate 0.54% among 330,000; AID 1259309, 2017;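 active = z-score under -3 and OD600 up to 0.15 on both plates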;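 note: plate controls were untreated wells for no effect and antibiotic for full effect; wells of about 80 µL received 100 nL stock; the first replicate is given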
PrP UTR inh – inhibition of PrP 5' UTR reporter expression | cell-based PrP 5' UTR mRNA reporter, plate reader | inhibition, % (no concentration beside the values) | AID 488862, 2010 | hit rate 0.35% among 340,000;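 active = every replicate at 50% or more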;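 note: 0 = median of the neutral control wells; tested in H4 reporter cells; numbers are from one replicate; inactives centre near -14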
Mtb hypoxia inh – PubChem AID 1159583; M. tuberculosis hypoxia-regulated fluorescent reporter, fluorescence; fluorescence inhibition, % (test concentration not listed); hit rate 0.1% among 300,000;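 active = 35 to 45% if threefold the growth effect, above 45% if 1.5-fold the growth effect; inactive = the rest, general growth blockers included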;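 note: wells of about 50 µL received 100 nL stock; 0% = vehicle wells and 100% = reference inhibitor wells; whole bacteria with a GFP reporter of the hypoxia response; strong numbers were not always called active; many hits fall short of the cut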
Mtb hypoxia inh growth – recorded beside Mtb hypoxia inh, whose call it bears; growth inhibition, %; measured here: M. tuberculosis growth (absorbance);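 0% = vehicle and 100% = reference antibiotic; read after six days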
Numbers without * were called inactive; nt = not tested or not shown.

no.	molecule	RN4220 kill	Bead autofluor	BJeLR viability	ugtP null kill	PrP UTR inh	Mtb hypoxia inh	Mtb hypoxia inh growth
1	Cc1cc(C(=O)CSc2nnc(N)s2)c(C)n1C1CC1	5.1	nt	-1	0	-34	-6	5
2	Cc1ccc(Nc2nnc(SCC(=O)c3ccc(O)cc3O)s2)cc1	4.0	4545	-5	-12	-6	1	-3
3	CN(C)c1ccc(C=NNC(=O)C[n+]2ccccc2)cc1	4.6	nt	nt	9	nt	10	2
4	CCc1ccc(C2C(=O)c3ccccc3C2=O)cc1	0.9	nt	3	6	-60	2	-2
5	O=C(Nc1ccccc1C(F)(F)F)C1CCN(C(=O)c2cccs2)CC1	6.0	6148	-7	-4	-11	3	-2
6	CC(C)c1ccc(NC(=O)COC(=O)c2nn(C)c(=O)c3ccccc23)cc1	5.2	5913	nt	12	-9	3	10
7	COc1cc(/C=N/NC(=O)c2ccc(CN3C(=O)c4cccc5cccc3c45)cc2)cc(OC)c1O	nt	2595	14	nt	-27	nt	nt
8	COc1ccc(-c2nn(-c3ccccc3)cc2C=NNc2ccccn2)cc1OC	0.6	nt	nt	-5	nt	6	6
9	CN(C)S(=O)(=O)c1cccc(-c2nnc3n2CCCCC3)c1	2.0	4456	12	3	-35	-4	5
10	CCCC12C(=O)C(C)(C(c3ccccc3)=C1c1ccccc1)C1C(=O)N(c3ccc(C)cc3)C(=O)C12 (stereo not given)	-0.3	2487	3	-6	-26	5	0
11	Cc1nn(C)c(=O)n1-c1ccc(OCc2ccccc2)cc1	1.1	9526	5	-4	-51	8	7
12	COc1ccccc1CNC(=O)Cn1cc([N+](=O)[O-])ccc1=O	-1.7	5542	-7	-4	-10	2	3
13	Cc1c(NC(=O)CC2NC(=O)NC2=O)c(=O)n(-c2ccccc2)n1C (stereo not given)	-0.8	nt	-4	1	nt	-6	-24
14	Cc1ccc(CN2C(=O)C(=O)N(CC(N)=O)C2=O)cc1	-3.5	3786	2	5	-1	-10	3
15	Cc1ccc(NC(=O)N2C3CCCC2CC(NC(=O)C2CC2)C3)cc1 (stereo not given)	5.3	4630	-4	2	-5	14	7
16	CC(=O)N1CCc2cc(S(=O)(=O)NCCC(=O)NCCc3ccc(C)cc3)ccc21	-3.1	3656	3	4	-31	nt	nt
17	Cc1cc2nc(/C=C/c3cccnc3)[nH]c2cc1C	0.0	3767	53*	-2	66*	12	6
18	CC(C)C(=O)Nc1cccc(C(=O)Nc2ccc(S(=O)(=O)N3CCOCC3)cc2)c1	3.5	4000	-26	13	-6	10	8
19	Cc1ccc([N+](=O)[O-])cc1NC(=O)C1CCCC1	1.0	3645	-11	4	-9	7	14
20	CN1CCN(c2ccc(NC(=O)c3ccc4c(c3)OCCO4)cc2Cl)CC1	-0.7	4668	15	-2	-49	7	5

Already shown: entries from further up.
no.	molecule	RN4220 kill	Bead autofluor	BJeLR viability	ugtP null kill	PrP UTR inh	Mtb hypoxia inh	Mtb hypoxia inh growth
12	COc1ccccc1CNC(=O)Cn1cc([N+](=O)[O-])ccc1=O	-1.7	5542	-7	-4	-10	2	3
13	Cc1c(NC(=O)CC2NC(=O)NC2=O)c(=O)n(-c2ccccc2)n1C (stereo not given)	-0.8	nt	-4	1	nt	-6	-24
14	Cc1ccc(CN2C(=O)C(=O)N(CC(N)=O)C2=O)cc1	-3.5	3786	2	5	-1	-10	3
15	Cc1ccc(NC(=O)N2C3CCCC2CC(NC(=O)C2CC2)C3)cc1 (stereo not given)	5.3	4630	-4	2	-5	14	7
16	CC(=O)N1CCc2cc(S(=O)(=O)NCCC(=O)NCCc3ccc(C)cc3)ccc21	-3.1	3656	3	4	-31	nt	nt
17	Cc1cc2nc(/C=C/c3cccnc3)[nH]c2cc1C	0.0	3767	53*	-2	66*	12	6
18	CC(C)C(=O)Nc1cccc(C(=O)Nc2ccc(S(=O)(=O)N3CCOCC3)cc2)c1	3.5	4000	-26	13	-6	10	8
19	Cc1ccc([N+](=O)[O-])cc1NC(=O)C1CCCC1	1.0	3645	-11	4	-9	7	14
20	CN1CCN(c2ccc(NC(=O)c3ccc4c(c3)OCCO4)cc2Cl)CC1	-0.7	4668	15	-2	-49	7	5

(listing goes on)
no.	molecule	RN4220 kill	Bead autofluor	BJeLR viability	ugtP null kill	PrP UTR inh	Mtb hypoxia inh	Mtb hypoxia inh growth
21	CCn1cc(/C=C2/SC(=S)NC2=O)c(C)n1	12	2582	9	5	-5	-2	10
22	CCN(CC)S(=O)(=O)c1ccc(NC2CCN(Cc3ccccc3)CC2)nc1	7.8	7197	-2	1	-19	-2	0
23	Cc1ccccc1CN1CCNCC1	15	4216	-4	1	-29	3	9
24	CCOc1ccc(NC(=O)CSc2nnc(Cc3ccccc3)c(=O)n2N)cc1	-1.2	5987	11	-3	-34	-7	13
25	Cc1ccc(C(=O)C(c2ccccc2)N2Cc3ccccc3C2=N)cc1 (stereo not given)	-4.6	2987	4	-12	4	-9	1
26	N#Cc1c(N=Cc2ccco2)sc2c1CCC2	7.2	nt	nt	-4	nt	3	6
27	Nc1ccc(Sc2ccccc2)nc1	3.3	4567	3	7	-11	9	1
28	Cc1onc(-c2ccccc2)c1C(=O)Nc1nnc(N2CCCCCC2)s1	6.5	3923	3	2	-6	nt	nt
29	COc1ccc(/C(C)=N/Nc2cccc(C(=O)O)c2)cc1OC	nt	3233	12	nt	-10	nt	nt
30	O=C(NC1CCCCC1)c1cc(S(=O)(=O)N2CCCC2)ccc1Cl	1.9	3827	-13	4	-24	8	4
31	CC1C/C(=C/c2cccn2C)C(=O)/C(=C/c2cccn2C)C1 (stereo not given)	5.8	4072	7	6	-16	9	10
32	COc1ccc(N2CCN(C(=O)Cn3cnc4c3c(=O)n(C)c(=O)n4C)CC2)cc1	3.3	4185	2	5	-16	8	7
33	Cc1ccc(C)c(NC(=O)NCCN2CCCCC2)c1	4.2	3058	-1	11	0	4	-1
34	CC1CN(C(=O)Nc2ccc(Br)cc2Cl)CC(C)O1 (stereo not given)	-2.2	4397	-1	4	-7	2	-1
35	COc1cc(/C=N/NC(=O)c2cccc(S(=O)(=O)N3CCCC3)c2)cc(OC)c1O	nt	4362	0	nt	-1	nt	nt
36	COc1ccc(Nc2nc(-c3cccs3)nc3ccccc23)cc1S(=O)(=O)N1CCOCC1	11	6101	12	-18	-2	-1	1
37	CCN(c1ccccc1)S(=O)(=O)c1ccc(C(=O)NCCCn2ccnc2)cc1	12	5238	1	6	-5	2	-2
38	O=[N+]([O-])c1ccc(Sc2ccccc2)nc1	18	9330	-8	0	-17	4	7
39	Cc1ccc(-c2onc(C)c2C)cc1S(=O)(=O)N1CCOc2ccccc21	4.4	5075	4	-6	0	6	8
40	COc1ccc(C(=O)OCCc2sc[n+](CC(=O)c3ccccc3)c2C)cc1	3.0	4260	-4	-6	-25	21	7

Single records (already shown). Screens in order: RN4220 kill	Bead autofluor	BJeLR viability	ugtP null kill	PrP UTR inh	Mtb hypoxia inh	Mtb hypoxia inh growth
N#Cc1c(N=Cc2ccco2)sc2c1CCC2 in the list: 7.2	nt	nt	-4	nt	3	6
COc1ccc(/C(C)=N/Nc2cccc(C(=O)O)c2)cc1OC in the list: nt	3233	12	nt	-10	nt	nt

Following part
no.	molecule	RN4220 kill	Bead autofluor	BJeLR viability	ugtP null kill	PrP UTR inh	Mtb hypoxia inh	Mtb hypoxia inh growth
41	CC(Sc1nc2cc([N+](=O)[O-])ccc2n1-c1ccc(F)cc1)C(=O)NCc1ccc2c(c1)OCO2 (stereo not given)	-4.8	7761	9	2	-13	6	4
42	CCOC(=O)CSC1=C(C#N)C(c2ccc(C)o2)CC(=O)N1 (stereo not given)	1.2	5823	37	2	55*	2	-2
43	O=C(O)c1cccc(Nc2nc3ccccc3nc2NS(=O)(=O)c2ccc(F)cc2)c1	8.2	2837	nt	6	-8	5	-4
44	COc1cccc(CNC(=O)CCC2CCCN(c3cc(C)nc(N(C)C)n3)C2)c1 (stereo not given)	2.4	4004	-5	8	-44	-1	2
45	CCCOc1ccccc1/C=C1\SC(N)=NC1=O	3.2	3959	-4	2	-18	10	1
46	COc1ccc(CCN2C(=O)CS/C2=N/NC(=O)c2ccccc2F)cc1OC	nt	1929	7	nt	-4	nt	nt
47	Cc1cccc(C)c1NC(=O)CNC(=O)c1ccc(S(=O)(=O)NCc2ccco2)cc1	2.0	3740	nt	5	0	3	4
48	CCOCCN1CCN(c2nnc3n2-c2ccc(Cl)cc2C(c2ccccc2Cl)=NC3)CC1	1.9	2119	1	1	2	nt	nt
49	CC(=O)c1ccc(C(=O)N2CCCC(CNC(=O)c3ccccc3Cl)C2)cc1 (stereo not given)	-1.4	5553	-3	-4	-10	3	-4
50	CCN1CCN(c2oc(-c3ccco3)nc2C#N)CC1	-1.4	4360	-6	13	nt	18	7
51	O=[N+]([O-])c1cccc(OCC(O)CN2CCN(S(=O)(=O)c3cc(Cl)ccc3Cl)CC2)c1 (stereo not given)	-1.9	3878	-4	6	-12	10	8
52	CCC(C)C(NC(=O)C1CCC(=O)N1C(=O)OCc1ccccc1)C(=O)NC(Cc1ccccc1)C(N)=O (stereo not given)	-2.4	3305	-13	-5	-5	0	1
53	O=C(NN=Cc1ccco1)c1ccc(OCc2ccccc2)cc1	1.7	nt	nt	9	nt	-2	-3
54	COc1ccc(NC(=O)COC(=O)CCc2cc(OC)c(OC)c(OC)c2)c([N+](=O)[O-])c1	2.0	4112	-1	-3	-10	2	11
55	CSCCC(C(=O)N1CC2(C)CC1CC(C)(C)C2)N1C(=O)c2ccccc2C1=O (stereo not given)	7.2	3356	5	6	-3	nt	nt
56	Cn1c(=O)c2c(ncn2CC(=O)N2CCN(c3ccccc3)CC2)n(C)c1=O	2.9	4828	7	0	-18	nt	nt
57	Cc1ccc(N/C(N)=N/c2nc(C)cc(C)n2)cc1	6.5	10962	7	-2	-13	3	7
58	O=C(NCCc1ccc(Cl)cc1)c1ccc(CS(=O)Cc2ccc(Cl)cc2)o1 (stereo not given)	-1.9	5478	8	99*	-4	7	2
59	COc1ccc(-n2nnnc2/C=C\Nc2ccccc2C(=O)c2ccccc2)cc1	3.0	4680	3	-1	-19	1	5
60	Cc1ccc(C)c(OCC(=O)Nc2ccccc2N2CCCC2)c1	7.8	nt	3	15	-3	10	-2

(more compounds)
no.	molecule	RN4220 kill	Bead autofluor	BJeLR viability	ugtP null kill	PrP UTR inh	Mtb hypoxia inh	Mtb hypoxia inh growth
61	COCCCNC(=O)c1ccc2c(c1)ncn2-c1ccccc1OC	0.3	5654	1	2	-1	nt	nt
62	CNC(=O)CC1C(=O)N(C)C(=S)N1NC(=O)c1ccc(Cl)cc1 (stereo not given)	-2.2	2268	14	-9	-25	nt	nt
63	CCOC(=O)C(=CNc1nc(-c2ccc3ccccc3c2)cs1)C(=O)OCC	-2.6	3823	2	8	-32	-11	3
64	O=C(NCC1CCCCC1)c1cccc(S(=O)(=O)NCc2cccnc2)c1	5.4	4238	-7	3	-10	-5	14
65	Oc1c(/C=C/C=C/C=Nc2ccccc2)sc(=S)n1Cc1ccccc1	4.9	nt	25	6	nt	12	-1
66	O=S(=O)(NN=Cc1ccc2c(c1)OCO2)c1ccc(Br)cc1	3.9	nt	nt	6	nt	1	8
67	CCn1cc(S(=O)(=O)c2ccc(C)cc2)[nH]c1=O	6.1	3517	0	0	-8	4	0
68	COc1ccc(/C(C)=N/NC(=O)c2ccncc2)cc1	nt	3461	0	nt	-13	nt	nt
